GIV Gai3 FP – inhibitors of GIV peptide binding to Galpha-i3, primary screen, biochemical, fluorescence polarization, FITC-GIV GBA peptide, rat Galphai3 | Guanine nucleotide-binding protein G(i) subunit alpha-3 (Rattus norvegicus), P08753 | 90 min; active compounds read low; scaled: aluminum fluoride 0%, vehicle 100% | percent of control (FP), % (no concentration beside the values) | 210,000 compounds, 0.42% hits;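 active = replicate mean at 85% of control or lower, very high polarization wells dropped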;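 also: wells of about 15 µL received 100 nL stock; the first replicate is given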
Target sequence (P08753 whole entry, looked up): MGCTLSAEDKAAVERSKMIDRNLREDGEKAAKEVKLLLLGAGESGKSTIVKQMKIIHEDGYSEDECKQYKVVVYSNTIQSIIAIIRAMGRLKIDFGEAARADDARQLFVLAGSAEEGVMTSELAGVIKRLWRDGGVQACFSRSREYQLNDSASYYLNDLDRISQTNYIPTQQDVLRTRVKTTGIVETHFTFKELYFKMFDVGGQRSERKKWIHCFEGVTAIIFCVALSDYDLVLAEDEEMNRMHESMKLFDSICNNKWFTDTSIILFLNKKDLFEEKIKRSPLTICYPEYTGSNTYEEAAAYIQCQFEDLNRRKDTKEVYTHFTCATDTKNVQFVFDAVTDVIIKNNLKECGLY
Sa growth inh – S. aureus growth inhibition at 42 and 30 °C, primary screen, LtaS inhibitor project, RN4220, two temperatures. relative growth, % (test concentration not listed). AID 720641, 2013. OD600, 20 h, 42 °C; active compounds read low. 170,000 compounds, 0.53% hits;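 active = growth at 42 °C up to 50% and 20 or more points under that at 30 °C, or under 10% at both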;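 also: 300 nL library stock went into each well; scaled to the means of positive and negative controls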
HCMV UL50-53 inh – inhibitors of HCMV UL50-UL53 interaction, biochemical, HTRF. normalized percent inhibition. inhibition, % (concentration not given with the values). 190,000 compounds, 0.15% hits. AID 1918969, 2023;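 active = both replicates at 50% or more, plus weaker picks with an unusually low signal ratio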;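 also: stock transfer was 100 nL into about 20 µL; 0% = negative control wells and 100% = wells with untagged competitor protein; inactives centre near -12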
Sa growth inh second temp – second read-out of Sa growth inh, no call of its own (marks repeat the call); relative growth, %; measured here: growth at 30 °C;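 optical density after 20 h as mean of two plates; 100% = untreated growth and lower means inhibition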
* hit, by the source's call; . = not tested or not shown; & = joins results of further samples.

SMILES	GIV Gai3 FP	Sa growth inh	Sa growth inh second temp	HCMV UL50-53 inh
CCn1c(=N)c(C#N)cc2c(=O)n3cc(C)ccc3nc21	111	89	86	-86
O=C(c1cccs1)N(Cc1ccccc1)Cc1cccs1	102	115	88	-1
COc1ccc(Cl)cc1N1C(=O)CC(N2CC(C)OC(C)C2)C1=O (stereo not given)	.	97	93	-2
COc1cccc(-c2cn3c(n2)sc2cc(C(=O)NCc4cccs4)ccc23)c1	102	147	94	.
CCCSc1nsc(NC(=O)CC)n1	93	98	98	-10
Cc1ccc2c(c1)c1c3n2C=CNC3CCC1 (stereo not given)	82*	67	1	-75
O=S(=O)(Cc1ccccc1)N1CCC(Oc2cccc(C(F)(F)F)c2)CC1	96	82	90	-19
Cc1ccc(C)c(CNC(=O)c2cc3ccccn3n2)c1	100	103	91	.
O=C(Nc1nc(-c2ccc(Br)s2)cs1)c1cc(=O)c2ccccc2o1	103	.	.	-28
COc1ccccc1Nc1nc2cc(Cl)ccc2o1	.	103	80	-14
NC(=O)c1c(NC(=O)CSc2nc3ccccc3s2)sc2c1CCC2	.	113	92	-15
COc1cc(NC(C)CCCN)c2ncccc2c1 (stereo not given)	95	11&52	7&23	-61&-24&16&23&11

Three entries from above, arranged by the value under Sa growth inh second temp, high to low.
SMILES | GIV Gai3 FP | Sa growth inh second temp
CCCSc1nsc(NC(=O)CC)n1 | 93 | 98
COc1ccc(Cl)cc1N1C(=O)CC(N2CC(C)OC(C)C2)C1=O (stereo not given) | . | 93
Cc1ccc2c(c1)c1c3n2C=CNC3CCC1 (stereo not given) | 82* | 1

Some of the entries so far, with two lines to a compound.
The line under a structure holds: GIV Gai3 FP, Sa growth inh, Sa growth inh second temp, HCMV UL50-53 inh
> Cc1ccc(C)c(CNC(=O)c2cc3ccccn3n2)c1
    100, 103, 91, .
> O=C(Nc1nc(-c2ccc(Br)s2)cs1)c1cc(=O)c2ccccc2o1
    103, ., ., -28
> COc1ccccc1Nc1nc2cc(Cl)ccc2o1
    ., 103, 80, -14

(listing goes on)
SMILES	GIV Gai3 FP	Sa growth inh	Sa growth inh second temp	HCMV UL50-53 inh
O=C(O)c1sccc1OCc1ccccc1	104	.	.	-12
O=C(O)CCNc1ncnc2c1oc1ccccc12	104	108	89	-16
O=C(CSc1nnc(Cn2nnc3ccccc32)o1)N(Cc1ccc(Cl)cc1)c1ccccc1	100	171	80	-9
CCc1ccccc1Nc1nc(N)nc(CN(C)Cc2cccs2)n1	.	69	52	13
CCOC(=O)N1CCN([C@H]2CS(=O)(=O)C[C@@H]2S(=O)(=O)c2cccs2)CC1	100	.	.	-7
CSc1nsc(SC)c1C(=O)NN1CCOCC1	100	96	87	-32
O=C(Cn1cc(C(=O)c2ccncc2)c(=O)c2cc(Cl)ccc21)Nc1cccc(Cl)c1	110	.	.	-6
COc1ccc(COC(=O)C2=C(C)NC3=C(C(=O)CC(C)(C)C3)C2c2ccc(OCCO)c(OC)c2)cc1 (stereo not given)	111	.	.	26
Nc1c(-c2ccccc2)c(CN2CCOCC2)nn1-c1ccccc1	.	121	89	-10
COC(=O)c1cnn(C(=O)Nc2ccccc2)c1C(OC)OC	105	116	85	-40
CCCc1noc(-c2ccc(NCc3ccccc3OC)c([N+](=O)[O-])c2)n1	100	107	98	-6
CC(N=Cc1c(O)ccc2ccccc12)C12CC3CC(CC(C3)C1)C2 (stereo not given)	96	96	100	.
CCOc1ccc(NC(=O)Nc2ccccc2SCc2cc(=O)n3oc(C)cc3n2)cc1	107	.	.	-20
O=C1N(c2ccccc2)C(=Nc2ccccc2)SC12CC2	101	91	100	0
Cc1cc(C)c2c(=O)[nH]n(C3CCCCCC3)c2n1	113	84	84	-9
C(=Nc1ccc(Nc2ccccc2)cc1)c1ccco1	123	104	71	-30
CCCCNS(=O)(=O)c1ccc2nc(-c3cccnc3)cc(C(=O)NCCOC)c2c1	102	100	82	.
Cc1cccc(Cn2c(CN3CCCC(C)C3)nc3c2c(=O)n(C)c(=O)n3C)c1 (stereo not given)	107	107	90	-4
Cc1cccc(-n2c(=O)c3c(c4cc(C)ccc4n3C)n(CC(=O)Nc3ccc(F)cc3F)c2=O)c1	102	.	.	-29
CSc1nsc(SC)c1CO	100	78	94	-5
CC(C)(N)COc1nonc1-c1ccccc1	104	108	72	-17
CCOC(=O)Cn1c(=O)n(CC2CCCO2)c2nc(-c3ccc(C)cc3)nc(C(N)=O)c21 (stereo not given)	107&107	95	94	-3
CCCCOC(=O)N1C2C=CC(C2)C1(C(F)(F)F)C(F)(F)F (stereo not given)	97	113	110	3
COc1ccc(S(=O)(=O)NCCCO)cc1-c1nnc2c3ccccc3c(C)nn12	109	99	102	3
CC(C)c1ccc(NC(=O)C2CCN(S(=O)(=O)c3ccc4c(c3)CCC(=O)N4)CC2)cc1	101	92	89	-5
NCC1(c2ccccc2)CCCC1	100	99	88	-30
Cc1nc(-c2ccc3c(c2)CCO3)no1	105	113	103	0
CCOc1ccc(OCc2cccc(C(=O)N3CCCC3)c2)cc1	99	104	102	.
CC(C)CNS(=O)(=O)c1cccc2c(N)cccc12	111	79	81	-25
O=C(COC(=O)/C=C/c1cccs1)Nc1ncc(Br)s1	.	98	101	-9
COc1ccc(C)cc1S(=O)(=O)N1CCN(c2cc(N3CCN(C)CC3)nc(C)n2)CC1	107	.	.	-24
CCOc1ccc(-c2nc(SCC(=O)Nc3ccc4c(c3)OCCO4)c(-c3ccc(F)cc3)[nH]2)cc1	102	113	86	-18
Cc1ccc(S(N)(=O)=O)cc1C(=O)NC(C)C	101	103	99	-29
COc1ccccc1NC(=O)c1cn(-c2ccccc2)nc1-c1ccccc1	105&98	131	85	12&-15
Cc1ccc(CNC(=O)c2cc3c(=O)n4cccc(C)c4nc3s2)cc1	102	102	99	-39
COc1cccc(/C=C/C(=O)Nc2cccc3c2C(=O)NC3=O)c1OC	.	72	89	-40

Looked up by compound from the entries so far, 5 records:
SMILES	GIV Gai3 FP	Sa growth inh	Sa growth inh second temp	HCMV UL50-53 inh
COc1cccc(/C=C/C(=O)Nc2cccc3c2C(=O)NC3=O)c1OC	.	72	89	-40
O=C(COC(=O)/C=C/c1cccs1)Nc1ncc(Br)s1	.	98	101	-9
Cc1nc(-c2ccc3c(c2)CCO3)no1	105	113	103	0
COc1ccccc1NC(=O)c1cn(-c2ccccc2)nc1-c1ccccc1	105&98	131	85	12&-15
CCOc1ccc(-c2nc(SCC(=O)Nc3ccc4c(c3)OCCO4)c(-c3ccc(F)cc3)[nH]2)cc1	102	113	86	-18

(cont.)
SMILES	GIV Gai3 FP	Sa growth inh	Sa growth inh second temp	HCMV UL50-53 inh
CCC(=O)N1CCN(c2ccc(NC(=O)COc3ccccc3)cc2)CC1	104	104	83	-3
C=CCn1cc(/C=C(\C#N)C(=O)NC2CCCCC2)c2ccccc21	98	101	88	-16
CC/C(=C\c1sc2ccc(OC)cc2[n+]1CC)SCC(=O)O	127	81	76	.
O=C(Nc1nnc(C2CCCC2)s1)C1CC1	99	85	113	12
Cc1ccccc1-c1noc(-c2ccc(N3CCC(C)CC3)c([N+](=O)[O-])c2)n1	104	111	86	-19
Cc1ccc(-n2c(SCc3ccccc3F)nc3[nH]ncc3c2=O)cc1C	103	35	28	.
CCCNC(=O)C1CCN(c2ccnc(-c3cccc(C)c3)n2)CC1	105	.	.	-14
CCOC(=O)C1(CC)CC(CSC(=N)N)OC1=O (stereo not given)	99	84	87	-21
CCOC(=O)c1c(NC(=O)c2cc(-c3ccc(Br)cc3)on2)sc(C(C)=O)c1C	101	105	104	4
Cc1ccccc1NC(=O)NC1(C(=O)N2CCC(C(N)=O)CC2)CCCCC1	106	127	91	1
O=C(c1ccccc1)c1ccccc1C(=O)N1CCN(C2CCS(=O)(=O)C2)CC1 (stereo not given)	.	98	98	-23
Cc1cccc(C(=O)Nc2cc(C)nn2-c2ncnc3c2cnn3-c2ccccc2)c1	99	.	.	-36

6 compounds out of the list, ordered by length of the SMILES, descending:
SMILES	GIV Gai3 FP	Sa growth inh	Sa growth inh second temp	HCMV UL50-53 inh
CCOC(=O)c1c(NC(=O)c2cc(-c3ccc(Br)cc3)on2)sc(C(C)=O)c1C	101	105	104	4
Cc1ccc(-n2c(SCc3ccccc3F)nc3[nH]ncc3c2=O)cc1C	103	35	28	.
C=CCn1cc(/C=C(\C#N)C(=O)NC2CCCCC2)c2ccccc21	98	101	88	-16
CCCNC(=O)C1CCN(c2ccnc(-c3cccc(C)c3)n2)CC1	105	.	.	-14
CC/C(=C\c1sc2ccc(OC)cc2[n+]1CC)SCC(=O)O	127	81	76	.
CCOC(=O)C1(CC)CC(CSC(=N)N)OC1=O (stereo not given)	99	84	87	-21

Following part
SMILES	GIV Gai3 FP	Sa growth inh	Sa growth inh second temp	HCMV UL50-53 inh
CCc1ccc(NS(=O)(=O)c2ccc3[nH]cc(C(=O)NCCc4ccccc4)c(=O)c3c2)cc1	103	91	78	-14
CC(Oc1ccc(/C=C2/SC(=O)N(C)C2=O)cc1)C(=O)O (stereo not given)	102	100	100	-102
Cc1cccc(-c2nnc3ccc(Cl)nn23)c1	105	.	.	-112
CC(=O)Nc1ccc(S(=O)(=O)N(C)CC(=O)NC2CCCc3ccccc32)cc1 (stereo not given)	.	83	87	-24
O=C(Cn1cc(C(=O)c2cccs2)c2ccccc21)Nc1ccccc1C(F)(F)F	105	92	65	.
O=C(NCCCn1ccnc1)C12CC3CC(CC(C3)C1)C2	100	104	74	-21
Cc1cn(C/C=C\c2ccccc2)c(=O)n(C/C=C/c2ccccc2)c1=O	98	98	92	.
COc1cc(C(=O)N2CCCN3C(=O)c4ccccc4C23)cc(OC)c1OC (stereo not given)	104	93	89	-14
CCOC(=O)c1c(C)oc2ncnc(Nc3cc(CO)ccc3C)c12	104	.	.	-8
CCOC(=O)c1cc(CC)sc1/N=C/C1C(=O)c2ccccc2C1=O	108	114	80	.
CN(C)c1cc2c(Nc3ccc4c(cnn4Cc4ccccc4)c3)ncnc2cn1	135	.	.	-51
COc1cc(CNC(=O)c2cc3n(n2)CCCN(Cc2ccc(C)cc2)C3=O)cc(OC)c1OC	101	84	86	.
CCN(C(=O)CSc1nc(-c2ccccc2)no1)c1ccccc1	100	125	59	.
COc1ccc(OCCn2c(N)nc3ccccc32)cc1	.	91	84	0
NC(=O)c1ccccc1NC(=O)COc1ccc2oc3c(c2c1)CCCC3	.	145	88	-35
CCOC(=O)c1sc2nc(N)c(C#N)c(-c3ccc(OC)c(OC)c3)c2c1N	98	.	.	-23
CCCN1C(=O)/C(=C\C(=O)c2cccs2)c2ccccc21	101	115	68	-13
c1ccc(OCc2nc3ccccc3s2)cc1	103	108	106	-4
C=CCn1c(SCC(=O)O)nnc1-c1sc2ccccc2c1Cl	96	118	94	.
COc1cccc2c1c(NC(=O)c1cc(C)oc1C)nn2C	99	105	80	-15
CN(C)c1ccc(C(=O)Nc2cc(C(F)(F)F)ccc2-n2cncn2)cc1	.	87	95	-5
Cc1cc(C)n(C(=S)CSc2nc(-c3ccc(F)cc3)cc(-c3ccco3)c2C#N)n1	106	102	90	.
O=C(NCC(c1cccnc1)N1CCOCC1)c1ccco1 (stereo not given)	99	93	86	.
O=C(CN1CCCCC1)OCCCC1CCCCC1	101	85	77	-30
COC(=O)c1sccc1N1C(=O)C=C(C)C1=O	106	93	99	22
O=c1[nH]nc(-c2ccc(Cl)cc2)c2ccccc12	94&104	100&97	83&81	-22&-29
CC(=O)c1cccc(NC(=O)C(C)n2c(=O)cc(-c3ccccc3)c3c(C)nn(C)c32)c1 (stereo not given)	109	89	96	.
CCn1cc2nc(SCC(=O)Nc3cc(OC)ccc3OC)n(Cc3ccc(Cl)cc3)c(=O)c2n1	105	95	90	-4
CCN(CC)S(=O)(=O)c1ccc(C(=O)NCC(=O)OC)cc1	.	79	98	-31
CCC(CO)NC1=CC(=O)CCC1 (stereo not given)	.	113	92	-5
Cc1nnc(SCc2cc(=O)n3cccc(C)c3n2)s1	100&109	94	92	.
Cc1cccc(CC2(Cc3cccc(C)c3)C(=O)OC(C)(C)OC2=O)c1	.	107	91	-9
O=C1CN(C(=O)COc2ccc(Cl)cc2)C(c2ccc(F)cc2)c2cc(Br)ccc2N1 (stereo not given)	101	85	75	-17
COc1ccc(C(C)NCc2ccco2)cc1 (stereo not given)	102	88	86	-22
CCOc1ccc(CNS(=O)(=O)c2cc3c(cc2C)NC(=O)CO3)cc1OC	99	93	88	.
Clc1cc(Cl)cc(-c2ccc(CNCc3ccco3)o2)c1	111	.	.	-4
